Bioassay records: PubChem BioAssay, Broad Institute
MITF inh: MITF inhibition | inhibition, % (test concentration not listed) | hit rate 0.28% among 37,000 | TRPM1 promoter luciferase, luminescence, 24 h;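 active = most replicates at 85% or more, or half of them and the mean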;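 note: human melanocyte line stably carrying TRPM1 promoter luciferase reporter; 0% = vehicle wells and 100% = a positive control; the first replicate is given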
YB-1 expression: YB-1 expression inhibition. delta delta Cp (YB-1 minus CDIP) (concentration not given with the values). hit rate 0.37% among 30,000. U2OS, qRT-PCR YB-1 vs CDIP delta delta Cp, 16 h; active compounds read high; zero = DMSO, each unit about twofold;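 active = delta delta Cp rounded down to an integer at or above 3, about 3 SD of DMSO wells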;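 note: higher means less YB-1 transcript or more CDIP transcript relative to DMSO; stock transfer was 100 nL into about 100 µL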
PD-1 reverse act: reversal of PD-1 mediated T-cell inhibition. primary human CD4 T cells, PD-L1 beads, CellTiter-Glo 96 h. activation, % (no concentration beside the values). 29,000 tested, under 10 active. AID 2316;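 active = replicate mean of 50% or more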;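 note: 0% = median vehicle wells and 100% = positive control; 100 nL library stock added to about 50 µL; numbers are from one replicate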
Shh pathway inh: blocks Sonic Hedgehog signaling; Shh-LIGHT2 Gli-luciferase reporter, 30 h; inhibition, % (test concentration not listed); hit rate 2.1% among 22,000; AID 2313;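 active = replicate mean of 65% or more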;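 note: pathway switched on by Shh-conditioned medium diluted 1 in 25 in low serum; 100 nL library stock added to about 40 µL; 0% = median of neutral wells and 100% = positive control level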
Starred values were filed as active, the others as inactive; . = no result given.

canonical_smiles	MITF inh	YB-1 expression	PD-1 reverse act	Shh pathway inh
C[C@@H]1CN([C@@H](C)CO)C(=O)Cc2cc(NC(=O)Cc3ccccc3)ccc2O[C@@H]1CN(C)C(=O)Nc1ccc(F)cc1	6	0.12	1.1	-1
O=C(Cc1ccccc1)Nc1cccc(C(=O)OCC(=O)c2ccc(Cl)cc2)c1	3	-0.31	-0.4	1
C[C@@H]1CN([C@H](C)CO)C(=O)c2cccc(NC(=O)c3cnccn3)c2O[C@@H]1CN(C)S(=O)(=O)c1ccc(F)cc1	-12	-0.12	-0.7	-34
C[C@H]1CN([C@@H](C)CO)C(=O)Cc2cc(NS(=O)(=O)c3ccc(Cl)cc3)ccc2O[C@H]1CN(C)S(=O)(=O)c1cn(C)cn1	-13	0.18	1.1	-13
C[C@@H]1CN([C@H](C)CO)C(=O)Cc2cc(NC(=O)CCCN(C)C)ccc2O[C@@H]1CN(C)S(=O)(=O)c1ccc(F)cc1	-2	-0.35	.	7
C[C@@H]1CN([C@H](C)CO)C(=O)Cc2cc(NS(C)(=O)=O)ccc2O[C@H]1CN(C)C(=O)Nc1ccccc1	-6	-0.38	.	-3
C[C@H]1CN([C@@H](C)CO)C(=O)Cc2cc(NC(=O)NC3CCCCC3)ccc2O[C@H]1CN(C)C(=O)Nc1cccc2ccccc12	-1	0.14	0.0	.
C=C[C@]1(C)C[C@H](O)[C@H]2C(=C)C(=O)O[C@@H]2[C@H]1C(=C)CO	0	0.56	-1.3	-10
C[C@@H]1CN([C@@H](C)CO)C(=O)Cc2cc(NC(=O)Cc3cn(C)c4ccccc34)ccc2O[C@@H]1CN(C)C	0	0.28	.	-37
C[C@H](CO)N1C[C@H](C)[C@@H](CN(C)Cc2ccccc2)Oc2c(NS(=O)(=O)c3ccc(F)cc3)cccc2C1=O	5	-1.2	0.6	18

canonical_smiles	MITF inh	YB-1 expression	PD-1 reverse act	Shh pathway inh
CNC[C@@H]1Oc2ccc(NC(=O)Nc3ccccc3)cc2CC(=O)N([C@H](C)CO)C[C@@H]1C	-4	-0.026	.	.
CCc1cccc(OCC(=O)Nc2sc3c(c2C(N)=O)CCCC3)c1	-63	.	1.5	.
C[C@H]1CN([C@@H](C)CO)C(=O)c2cc(NS(=O)(=O)c3cn(C)cn3)ccc2O[C@@H]1CN(C)C(=O)Nc1ccc(C(F)(F)F)cc1	11	-0.27	0.9	-32
CC(C)NC(=O)Nc1ccc2c(c1)CC(=O)N([C@@H](C)CO)C[C@H](C)[C@@H](CN(C)C(=O)Nc1ccccc1)O2	-11	0.06	0.8	35
O=[N+]([O-])c1ccc(N2CCN(S(=O)(=O)c3ccc(Cl)s3)CC2)cc1NCc1ccco1	-9	.	1.6	.
C[C@H]1CN([C@@H](C)CO)C(=O)c2cc(NC(=O)Nc3ccccc3)ccc2O[C@H]1CN(C)Cc1ccc(C(=O)O)cc1	6	0.0054	0.3	4
C[C@H]1CN([C@@H](C)CO)C(=O)c2cc(NC(=O)CCC(F)(F)F)ccc2O[C@@H]1CN(C)Cc1ccc(-c2ccccc2)cc1	-3	-0.6	-0.1	28
COc1ccc(C(=O)Nc2ccccc2C(=O)NCCN2CCOCC2)cc1	-8	.	2.0	.
C[C@@H]1CN([C@@H](C)CO)C(=O)c2cccc(NC(=O)C3CC3)c2O[C@@H]1CN(C)C(=O)Nc1ccc(F)cc1	-13	-0.17	.	9
O=C(Nc1ccc(F)c(Cl)c1)C1CC(=O)n2ncnc2N1 (stereo not drawn)	-18	.	2.1	.

In a second layout: entries from further up
COc1ccc(C(=O)Nc2ccccc2C(=O)NCCN2CCOCC2)cc1
  MITF inh = -8
  YB-1 expression = .
  PD-1 reverse act = 2.0
  Shh pathway inh = .

C[C@@H]1CN([C@@H](C)CO)C(=O)c2cccc(NC(=O)C3CC3)c2O[C@@H]1CN(C)C(=O)Nc1ccc(F)cc1
  MITF inh = -13
  YB-1 expression = -0.17
  PD-1 reverse act = .
  Shh pathway inh = 9

(further entries)
canonical_smiles	MITF inh	YB-1 expression	PD-1 reverse act	Shh pathway inh
CCCCCCCC/C=C\CCCCCCCc1cccc(O)c1C(=O)O	11	-0.28	1.2	66*
Oc1cc(C2CCCCC2)cc(C2CCCCC2)c1	40	0.0071	-7.1	.
C[C@@H]1CCCCO[C@H](CN(C)Cc2ccc(C(=O)O)cc2)[C@@H](C)CN([C@H](C)CO)C(=O)c2cc(NS(=O)(=O)c3cccs3)ccc2O1	2	-0.14	2.4	-19
COc1cc(O[C@@H]2O[C@H](CO)[C@@H](O)[C@H](O)[C@H]2O)cc(OC)c1OC	-8	-0.22	0.1	5
C[C@H]1CN([C@@H](C)CO)C(=O)c2cc(NC(=O)CCCN(C)C)ccc2O[C@H]1CN(C)S(=O)(=O)c1cn(C)cn1	0	0.39	0.9	-5
C[C@@H]1CN([C@H](C)CO)C(=O)c2cc(NC(=O)Nc3ccc(C(F)(F)F)cc3)ccc2O[C@H]1CN(C)C(=O)NC1CCCCC1	-16	0.14	-1.5	.
C[C@H]1CN([C@@H](C)CO)C(=O)c2cccc(NC(=O)C3CCOCC3)c2O[C@H]1CN(C)S(=O)(=O)c1ccc(F)cc1	1	0.044	.	9
COc1ccc(-c2nnc(SCCCN3C(=O)c4cccc5cccc(c45)C3=O)n2C)cc1OC	28	.	-0.9	.
C[C@H]1CN([C@@H](C)CO)C(=O)c2cc(NS(C)(=O)=O)ccc2O[C@H]1CN(C)C(=O)NC1CCCCC1	11	-0.076	1.3	-24
C[C@@H]1CN([C@@H](C)CO)C(=O)c2cc(NC(=O)Cn3cnnn3)ccc2O[C@H]1CN(C)Cc1ccc(C(F)(F)F)cc1	-8	0.5	0.4	14

canonical_smiles	MITF inh	YB-1 expression	PD-1 reverse act	Shh pathway inh
C[C@H]1CN([C@@H](C)CO)C(=O)c2cc(NC(=O)CCC(F)(F)F)ccc2O[C@@H]1CN(C)C(=O)NC1CCCCC1	-6	-0.32	.	.
Cc1noc(C)c1S(=O)(=O)N(C)C[C@H]1Oc2ccc(NS(=O)(=O)c3cccs3)cc2CC(=O)N([C@@H](C)CO)C[C@@H]1C	3	-0.13	.	.
COc1ccc(CNCc2cccc(OC)c2)cc1	11	-0.23	-0.2	-12
C[C@H](CO)N1C[C@H](C)[C@H](CN(C)Cc2ccc3c(c2)OCO3)Oc2c(NC(=O)c3nc4ccccc4s3)cccc2C1=O	9	0.3	-3.4	-21
Oc1cc(O)cc(/C=C/c2ccccc2)c1	8	0.24	.	-22
C=CCn1c(-c2ccc(OC)cc2)c(C)sc1=Nc1ccc(C)cc1	18	0.0041	0.3	-71
C[C@@H]1CN([C@H](C)CO)C(=O)Cc2cc(NS(=O)(=O)c3cn(C)cn3)ccc2O[C@H]1CN(C)S(=O)(=O)c1cccs1	-3	0.0085	.	-3
C[C@H]1CN([C@@H](C)CO)C(=O)c2cccc(NC(=O)NC3CCCCC3)c2O[C@@H]1CN(C)S(=O)(=O)c1ccc(F)cc1	-4	-0.46	.	-40
COc1ccc(S(=O)(=O)N(C)C[C@H]2OCCCC[C@@H](C)Oc3ccc(NC(=O)CCC(F)(F)F)cc3C(=O)N([C@H](C)CO)C[C@@H]2C)cc1	-1	-0.056	0.4	.
C[C@@H]1CN([C@H](C)CO)C(=O)Cc2cc(NC(=O)Cn3cnnn3)ccc2O[C@H]1CN(C)S(=O)(=O)c1cccs1	-2	-0.027	1.1	-29

Taken from the results shown (2 entries):
canonical_smiles	MITF inh	YB-1 expression	PD-1 reverse act	Shh pathway inh
Cc1noc(C)c1S(=O)(=O)N(C)C[C@H]1Oc2ccc(NS(=O)(=O)c3cccs3)cc2CC(=O)N([C@@H](C)CO)C[C@@H]1C	3	-0.13	.	.
COc1ccc(CNCc2cccc(OC)c2)cc1	11	-0.23	-0.2	-12

Continuation:
canonical_smiles	MITF inh	YB-1 expression	PD-1 reverse act	Shh pathway inh
COc1ccc([N+](=O)[O-])cc1N(CC(=O)N1CCCC1)S(C)(=O)=O	-11	.	3.8	.
C[C@H]1CN([C@@H](C)CO)C(=O)c2cccc(NC(=O)Nc3ccc4c(c3)OCO4)c2O[C@H]1CN(C)S(=O)(=O)c1ccccc1	-33	0.33	-0.7	6
CC(=O)O[C@@H]1c2c(C)coc2C(=O)[C@@]23O[C@@H]2CC[C@H](C)[C@@]13C	-2	-0.69	-0.3	-11
O=C(CSc1nc(-c2ccccc2)cs1)Nc1ccccc1C(F)(F)F	-7	.	0.4	.
C[C@H](CO)N1C[C@H](C)[C@H](CN(C)S(C)(=O)=O)Oc2c(NC(=O)Nc3cccc4ccccc34)cccc2C1=O	-2	-0.12	.	18
C[C@@H]1CN([C@@H](C)CO)C(=O)c2cccc(NC(=O)c3ccncc3)c2O[C@H]1CN(C)S(C)(=O)=O	-2	-0.22	1.9	-2
Cc1cccc(C)c1OCC(=O)Nc1cccnc1	-12	.	-1.5	.
C[C@H]1CN([C@@H](C)CO)C(=O)c2cccc(NS(=O)(=O)c3ccc(Cl)cc3)c2O[C@@H]1CN(C)C(=O)Nc1ccccc1	0	0.0093	-2.0	-40
COc1ccc(NC(=O)N(C)C[C@@H]2OCCCC[C@@H](C)Oc3ccc(NC(=O)Cc4ccccc4)cc3C(=O)N([C@H](C)CO)C[C@@H]2C)cc1	-11	0.055	-1.2	2
CNC[C@@H]1OCCCC[C@@H](C)Oc2ccc(NS(=O)(=O)c3ccc(F)cc3)cc2C(=O)N([C@H](C)CO)C[C@@H]1C	-6	0.077	0.3	-19

canonical_smiles	MITF inh	YB-1 expression	PD-1 reverse act	Shh pathway inh
Cc1noc(C)c1S(=O)(=O)Nc1ccc2c(c1)C(=O)N([C@H](C)CO)C[C@@H](C)[C@H](CN(C)C(=O)Nc1ccc3c(c1)OCO3)O2	2	-0.13	.	.
C[C@H](CO)N1C[C@H](C)[C@H](CN(C)Cc2ccc(C(=O)O)cc2)Oc2ccc(NC(=O)C3CCCCC3)cc2C1=O	-4	0.13	0.3	-18
CCOC(=O)c1c(NC(=O)CSc2nccc(C)n2)sc2c1CCCC2	22	.	-0.3	.
COC(=O)C1=C(C)NC(=O)NC1c1cccc(OC)c1OCc1ccccc1 (stereo not drawn)	-4	.	1.8	.
CN(CC(=O)Nc1cccc2c1CCCC2)S(=O)(=O)c1ccc(Br)cc1	15	.	-4.0	.
Cc1ccc(S(=O)(=O)Nc2ccc3c(c2)CC(=O)N([C@H](C)CO)C[C@H](C)[C@H](CN(C)Cc2ccc4c(c2)OCO4)O3)cc1	10	0.13	1.3	44
COc1ccc(NC(=O)Nc2ccc3c(c2)C(=O)N([C@H](C)CO)C[C@@H](C)[C@@H](CN(C)Cc2ccc4c(c2)OCO4)O3)cc1	1	-0.25	1.9	.
C[C@H]1CN([C@@H](C)CO)C(=O)c2cc(NS(=O)(=O)c3ccc(F)cc3)ccc2O[C@H]1CN(C)C(=O)Nc1ccc(C(F)(F)F)cc1	9	0.13	-4.0	.
C[C@H]1CN([C@@H](C)CO)C(=O)c2cc(NS(=O)(=O)c3ccccc3)ccc2O[C@H]1CN(C)Cc1ccccc1	-11	2.4	3.5	.
C[C@@H]1CN([C@H](C)CO)C(=O)Cc2cc(NS(C)(=O)=O)ccc2O[C@@H]1CN(C)Cc1ccc(Cl)c(Cl)c1	-5	-0.16	-2.2	47

canonical_smiles	MITF inh	YB-1 expression	PD-1 reverse act	Shh pathway inh
Cc1noc(C)c1S(=O)(=O)N(C)C[C@H]1Oc2c(NS(=O)(=O)c3cn(C)cn3)cccc2C(=O)N([C@@H](C)CO)C[C@@H]1C	-7	-0.038	0.0	-8
C[C@H]1CN([C@@H](C)CO)C(=O)c2cccc(NS(=O)(=O)c3ccc(F)cc3)c2O[C@@H]1CN(C)C(=O)Nc1cccc2ccccc12	14	-0.64	-1.3	-28
Cc1ccc(Nc2nc(CSc3nnnn3-c3ccccc3)cc(=O)[nH]2)cc1	17	.	0.5	.
COc1ccc(S(=O)(=O)N(C)CC(=O)Nc2ccc(I)cc2)cc1C	20	.	0.0	.
CNC[C@H]1Oc2ccc(NC(=O)Nc3ccccc3)cc2CC(=O)N([C@@H](C)CO)C[C@@H]1C	3	-0.053	2.3	40
Cc1cc(C)nc(SC2CCCCC2NS(=O)(=O)c2ccc(Cl)cc2)n1 (stereo not drawn)	7	.	-1.8	.
CC(C)NC(=O)Nc1cccc2c1O[C@@H](CN(C)C(=O)NC(C)C)[C@H](C)CN([C@H](C)CO)C2=O	-3	-0.066	0.9	-7
C[C@@H]1CN([C@H](C)CO)C(=O)c2cccc(NS(=O)(=O)c3ccccc3)c2O[C@@H]1CN(C)S(=O)(=O)c1ccccc1	-11	0.43	.	-106
COC(=O)c1cc(O)cc(OC)c1Oc1c(Cl)c(C)c(Cl)c(O)c1C(=O)O	0	-0.049	-0.7	-3

An excerpt; count on the stated rates, not on these rows.
